gsp antagonist = qHTS for Antagonists of gsp, the Etiologic Mutation Responsible for Fibrous Dysplasia/McCune-Albright Syndrome: qHTS. gsp-mutant cells, cAMP HTRF, 30 min; control for the full effect not named in the record. Potency, µM (doses to about 76.9 µM), inactives show at the top dose activity change, negative = inhibition, usual class: inhibitors. 340,000 compounds, 0.4% hits; active = falling curve of any shape with a large fitted effect; inconclusive = falling curve, mostly with a smaller effect; inactive = flat or rising curve; cell line not stated here;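 note: intracellular cAMP measured with PDE inhibitor Ro 20-1724 present during compound exposure; potency is the fitted concentration of half-maximal effect; % is set by controls: 0 for no effect and ±100 for the full control effect; nearly all actives have a fitted effect of over 65% in size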
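Cells in G418 medium, seeded 16-24 h, 37C; buffer exchange to DPBS + 1 mM CaCl2, 0.5 mM MgCl2, 0.05% BSA; cpds in DMSO + […] (300 uM stock), 30 min 37C; HTRF cAMP detection.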
TRPV1 PAM = HTS Assay for Compounds that Act as Potentiators of the Vanilloid Receptor 1. Transient receptor potential cation channel subfamily V member 1 (Homo sapiens), Q8NER1. TRPV1-expressing cells, Fluo-8 calcium influx, capsaicin EC20 potentiation; host cell line not named in the record; control for the full effect not named in the record. potentiation, % at 8.33 µM. 320,000 compounds, 0.02% hits. AID 540277, 2011; active means potentiation above 80%; inconclusive means 30% to 80%; inactive means below 30%; note: 0% is about no effect
Target sequence (Q8NER1 whole entry, looked up): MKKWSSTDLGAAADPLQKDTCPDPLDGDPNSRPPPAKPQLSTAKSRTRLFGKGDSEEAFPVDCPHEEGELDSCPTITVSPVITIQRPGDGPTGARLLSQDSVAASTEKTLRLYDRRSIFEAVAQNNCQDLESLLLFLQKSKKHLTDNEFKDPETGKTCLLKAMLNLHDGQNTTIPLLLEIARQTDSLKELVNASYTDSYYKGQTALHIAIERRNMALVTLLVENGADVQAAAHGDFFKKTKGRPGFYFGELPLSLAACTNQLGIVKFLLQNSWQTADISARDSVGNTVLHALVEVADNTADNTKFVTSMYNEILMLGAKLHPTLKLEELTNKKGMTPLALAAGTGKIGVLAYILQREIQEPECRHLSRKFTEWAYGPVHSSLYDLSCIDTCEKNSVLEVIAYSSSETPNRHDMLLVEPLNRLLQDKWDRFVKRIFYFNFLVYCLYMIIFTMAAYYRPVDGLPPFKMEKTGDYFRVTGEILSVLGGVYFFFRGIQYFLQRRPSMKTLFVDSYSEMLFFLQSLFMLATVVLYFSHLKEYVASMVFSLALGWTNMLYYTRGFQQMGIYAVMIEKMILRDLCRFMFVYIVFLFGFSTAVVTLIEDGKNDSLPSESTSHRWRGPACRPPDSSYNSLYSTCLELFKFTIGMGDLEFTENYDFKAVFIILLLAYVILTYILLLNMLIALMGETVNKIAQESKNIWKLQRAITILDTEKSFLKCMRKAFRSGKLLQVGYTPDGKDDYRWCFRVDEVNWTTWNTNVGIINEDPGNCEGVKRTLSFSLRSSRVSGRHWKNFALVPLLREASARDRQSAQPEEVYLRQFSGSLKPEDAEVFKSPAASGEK
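Cells expressing TRPV1 were dye-loaded with Fluo-8 and read kinetically: 10 s baseline, 3 min after compound (agonist portion), then 2 min after EC20 capsaicin (allosteric enhancer portion). Calcium-bound dye fluorescence at 480/520 nm.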
Sfp PPTase inh = qHTS Assay for Inhibitors of Bacillus subtilis Sfp phosphopantetheinyl transferase (PPTase); 4'-phosphopantetheinyl transferase ffp (Bacillus subtilis), Q9F4F7; Biochemical Sfp PPTase activity, qHTS; Potency, µM, for the others: max response, negative = inhibition, actives largely listed as inhibitors; 310,000 compounds, 3.5% hits; active = well fitted inhibition curve with a large enough effect; inconclusive = small, poorly fitted or top-dose-only effect, or another doubt; inactive = no such curve, though single readings can be large or run the other way;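 note: the enzyme is Sfp with the accession as filed and its product quenches rhodamine fluorescence; potency is the fitted concentration of half-maximal effect; 0% = enzyme reaction without inhibitor and -100% = no enzyme wells; top concentration of the series not given in the record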
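After 15 min at room temperature with compound, 15 nM Sfp received 5 uM rhodamine-CoA plus 12.5 uM BHQ-2-ybbR (50 mM Hepes pH 7.6, 10 mM MgCl2). Rate came from the fluorescence difference over 30 min, ex 525/em 598 nm.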
gsp ag = qHTS for Agonist of gsp, the Etiologic Mutation Responsible for Fibrous Dysplasia/McCune-Albright Syndrome: qHTS. Potency, µM (titrated, usually from 76.9 µM), without a hit: at the highest dose activation (cAMP increase), actives largely listed as activators. 340,000 compounds, 0.13% hits. gsp mutant cells, cAMP HTRF, 30 min; control for the full effect not named in the record; active = well fitted activation curve with a large enough effect; inconclusive = small, poorly fitted or top-dose-only effect, or another doubt; inactive = no such curve, though single readings can be large or run the other way; cell line not stated here;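 note: phosphodiesterase inhibitor Ro 20-1724 added with compounds to block cAMP breakdown; potency is the fitted concentration of half-maximal effect; nearly all actives have a fitted effect of over 60% in size; about a fifth of the inactives were tested at one dose only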
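Cells in DMEM/10% FBS with G418 were pretreated with compounds in DMSO plus […] (300 uM stock) for 30 min at 37C. cAMP was measured by HTRF (cAMP-d2 plus anti-cAMP antibody-K) after 30 min at room temperature.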
Menin-MLL FL inh = qHTS Assay for Inhibitors Targeting the Menin-MLL Interaction in MLL Related Leukemias: Competition With Fluorescein Labeled MLL-derived Peptide | Fluorescence polarization, fluorescein-MLL peptide displacement from menin | 290,000 tested, under 10 active | AID 1766, 2009 | FP activity change, % at 61.4 µM; inconclusive = falling polarisation curve, or a change in total fluorescence; inactive = total fluorescence flat and polarisation flat or rising; no compound was filed as active; the % refers to the polarisation; negative = inhibition;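 note: % of control where 0% means no effect; inhibitors lower the polarisation; unlabelled MLL peptide was the positive control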
TRPML1 blocker = qHTS for Inhibitors of the Human Mucolipin Transient Receptor Potential 1 (TRPML1); TRPML1-inducible cells, Ca2+ dye fluorescence, FDSS; hits give low values; inhibition of EC80 agonist-evoked calcium signal; activity change, negative = inhibition, % (concentration not given with the values); 390,000 compounds, 0.02% hits; Mucolipin-1 (Homo sapiens), Q9GZU1; in the data active means activity change below about -50%; inconclusive means about -30% to -50%; inactive means above about -30%;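 note: stimulus is agonist 54-4 at its EC80 concentration; % is set by controls: 0 for no effect and ±100 for the full control effect; the text of the record puts the active cut at -80%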
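TRPML1-DL cells, Tet-induced overnight (~16 h, 37 °C) at 1,500 cells/well, were loaded with Ca8 no-wash dye plus quencher for 45-90 min at room temperature. Compounds were pinned during FDSS kinetic reading; agonist 54-4 at EC80 (4 uM final) then added.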
ClpP mod = qHTS Assay for Activators of ClpP. ATP-dependent Clp protease proteolytic subunit (Bacillus subtilis (strain 168)), P80244. purified B. subtilis ClpP, FRET peptide cleavage, 20 min. Potency, µM (doses to about 57.5 µM), for inactives: at the top dose activity change, negative = active. 340,000 compounds, 1.9% hits. AID 651965, 2013; active = well fitted falling curve with a large enough effect; inconclusive = small, poorly fitted or top-dose-only effect; inactive = no such curve, though single readings can be large or run the other way; note: potency is the fitted concentration of half-maximal effect; the source files actives as falling curves though it sought activators and does not explain the sign; nearly all actives have a fitted effect of over 65% in size; many hits overshoot -100%
Target sequence (P80244 whole entry, looked up): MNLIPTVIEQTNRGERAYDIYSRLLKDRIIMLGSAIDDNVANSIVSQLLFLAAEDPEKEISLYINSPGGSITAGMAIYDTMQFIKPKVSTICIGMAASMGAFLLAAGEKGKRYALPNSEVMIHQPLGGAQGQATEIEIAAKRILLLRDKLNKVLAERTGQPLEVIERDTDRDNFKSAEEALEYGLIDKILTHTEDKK
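Purified B. subtilis ClpP, 10 microg/mL final in Tris/HCl pH8 with KCl, BSA, glycerol and Tween-20, cleaved an Abz/nitrotyrosine-quenched decapeptide. Fluorescence (ex 320, em 430) was read at 0 and 20 min at room temperature. Delta was normalized to 5.8 microM ADEP and DMSO/no-enzyme controls.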
* marks the source's active call; other numbers are inactive results; ? = inconclusive; nt = no result given; & = joins results of further samples; [ ] = another dose, or the depositor's remark.

SMILES	gsp antagonist	TRPV1 PAM	Sfp PPTase inh	gsp ag	Menin-MLL FL inh	TRPML1 blocker	ClpP mod
COC(=O)c1c(C)[nH]c(O)c1C=Nc1ccc(C#N)cc1	33.1%[activator]	-6.5	44.7µM*	29.6%	?	-0.5	0.2%
COC(=O)c1ccc(CNC(=O)C(NC(=O)c2ccco2)C(C)C)cc1 (stereo not given)	5.8%	?	13.7%	-26.4%	10.6	9.8	nt
COCCN1C=C2C(=O)C(C)(OC(=O)CCC(=O)OC)C(=O)C=C2C=C1C1CC1 (stereo not given)	-1.3%	23.9	-4.6%&20.6%	nt	-5.3[11.7 µM]	-7.9	0.9%
CCN(C(=O)CCc1ccccc1)C1CCCCC1	0.0%	-17.5	8.8%	3.2%	-1.6	-11.3	-1.7%
Cc1ccccc1-c1nc2ccccc2c(=O)n1/N=C/c1ccccc1[N+](=O)[O-]	-14.3%	5.4	0.398µM*	0.5%	0.2	-2.0	-8.1%
CC(C)CCN1C(=O)c2ccc(C(=O)NCc3ccccn3)cc2C1=O	2.1%	27.9	nt	18.5%[15.4 µM]	nt	11.3	31.6µM*
COc1c(Cl)cc(Cl)cc1CNCc1ccccc1	-9.8%	7.0	8.6%	-16.6%	-0.5	-6.9	-1.1%
CCC1CCC(c2nnc(-c3ccc(Br)cc3)o2)CC1 (stereo not given)	-2.8%	-8.4	-15.6%	0.1%	2.3	23.9	-1.0%
COc1cccc(CN(C)C(=O)CSc2nc3ccccc3[nH]2)c1OC	2.6%	-11.4	-1.2%	10.9%	18.8	18.0	nt
CCCc1cnc(N2CCN(C(=O)c3ccccc3)CC2)nc1	5.7%	-8.5	1.0%	-27.7%	5.9	-10.4	-13.6%
CCOC(=O)NC(CC(=O)O)c1ccc(OC)cc1 (stereo not given)	0.5%[15.4 µM]	4.9	18.7%	-4.7%	-4.0	31.1	-1.8%
Cc1ccc(-c2noc(CC(=O)c3ccc([N+](=O)[O-])cc3)n2)cc1	0.6%	nt	nt	15.9%	nt	-18.2	-3.7%
Cc1ccc(C(=O)C[n+]2ccc(Cc3ccccc3)cc2)cc1	15.5%	5.5	11.4%	-8.4%[15.4 µM]	2.4	-3.9	-2.6%
COCCn1cnnc1SCC(=O)Nc1cccc(S(=O)(=O)N2CCCCCC2)c1	-1.9%	5.8	-5.5%	14.5%	7.2	-16.1	1.6%
Cc1ccc(C(=O)C2Oc3ccccc3C3CC(c4ccc(C)cc4)=NN23)cc1 (stereo not given)	-4.9%	23.5	11.3%	2.4%	1.0	-29.8	-2.1%
CCOC(=O)c1sc(-c2ccc(F)cc2)cc1NC(=O)Nc1ccccc1OC	-2.2%	-2.7	1.5%	-4.6%	-0.9	3.5	17.8µM*
CCOC(=O)C(C)n1ncn2cccc2c1=O (stereo not given)	10.5%	2.2	8.4%	-44.3%[inhibitor]	-0.5	16.1	-2.3%
O=C(CN1C(=O)CC(c2ccco2)Sc2ccccc21)NCC1CCCO1 (stereo not given)	1.9%	12.2	11.2µM*	8.5%	-1.1	-4.9	-0.6%
Cc1ccccc1N1C(=O)C(Cl)=C(N2CCCCCC2)C1=O	-5.3%	-25.6	-26.2%	13.7%	8.8	-1.0	1.5%
NC(=O)C1CCN(C(=O)c2ccc(NS(=O)(=O)c3ccc(F)cc3)cc2)CC1	15.4%	9.6	nt	-30.7%[inhibitor]	nt	-9.5	1.5%
COc1ccccc1CNC(=O)C(=O)c1cn(CC(=O)N2CCCCC2)c2ccccc12	nt	nt	nt	-16.9%	nt	-5.5	0.0%
COc1cccc(CN2CCNC(=O)C2CC(=O)NCC(C)(C)N2CCOCC2)c1OC (stereo not given)	5.5%	4.8	6.4%	-1.9%[15.4 µM]	nt	-3.9	-2.7%
Cc1ccccc1COC(=O)CCCC1=NS(=O)(=O)c2ccccc2N1	3.1%	-8.8	12.2%	?	nt	7.3	-0.7%
CCN(C(=O)COC(=O)Cc1c(F)cccc1Cl)c1c(N)n(Cc2ccccc2)c(=O)[nH]c1=O	-4.5%	-1.1	nt	7.3%	nt	-19.8	-1.5%
CCOc1ccc(C(=O)NCCN2CCCCC2)c(OCC)c1	13.3%	13.1	5.2%	-4.4%[15.4 µM]	-0.9	22.7	0.0%
COc1ccc(CNC(=O)C(=O)NCC2OCCN2S(=O)(=O)c2ccc(OC)c(OC)c2)cc1 (stereo not given)	6.6%	18.2	6.3%	?	nt	7.0	-2.1%
COc1cc(C(=O)N/N=C/c2cc([N+](=O)[O-])cs2)cc(OC)c1OC	21.6%	-1.1	-9.1%	24.7%	1.5	-6.9	-0.8%
C1CSC2(N1)C1CC3CC2CC(C1)C31NCCS1 (stereo not given)	8.4%	1.1	20µM*	6.6%	2.0	7.9	0.0%
O=C(Cn1nc2n(c1=O)-c1ccccc1SC2)N/N=C/c1cccnc1	4.7%	-1.9	5.5%	-1.7%	-2.8	3.9	-1.9%
COc1ccc(NC(=O)N2CCCC2C(=O)NC2CCCC2)cc1 (stereo not given)	3.8%	16.9	7.1%	-4.9%	0.2	3.5	nt
Cc1cccc(N(C)C(=O)CCS(=O)(=O)c2cccc3nonc23)c1	4.2%	-13.2	4.6%	8.4%	0.0	16.2	0.8%
CC1(C)Cc2c(sc3ncnc(NN)c23)CO1	5.1%	-3.2	39.8µM*	?	4.3	12.6	-0.6%
CN(Cc1ccccc1)C(=O)c1[nH]cnc1C(=O)N[C@@H](Cc1ccccc1)C(=O)OCc1ccccc1	-5.3%	4.7	16.2%	nt	4.3	26.8	0.7%
Cc1cccc(NC(=O)c2ccc(S(=O)(=O)N3CCOCC3)cc2)n1	6.3%	3.6	-3.6%	3.7%	-6.6	-6.7	-2.6%
CCCCN1C(=O)C(C(=O)OCC)CC2=C1CCCC2=O (stereo not given)	-2.7%	nt	nt	nt	nt	14.2	0.7%
CC(C)c1ccc(OCC(=O)N(Cc2ccco2)C2CCS(=O)(=O)C2)cc1 (stereo not given)	-1.3%	5.2	14.8%	9.0%	-0.1	1.9	0.6%
COc1ccc(NC(=O)CSc2nnc(Cn3cnc4ccccc43)n2C)cc1	0.7%	0.6	13.8%	9.2%	1.6	-4.8	-0.9%
CCOC(=O)C1=C(O)C(=O)N(c2ccc(S(N)(=O)=O)cc2)C1c1ccc(OC)cc1 (stereo not given)	8.1%	11.8	6.1%	16.4%	3.1	-6.9	?
CCOC(=O)c1cnc(SCCN2CCOCC2)nc1N	-1.0%	3.0	-7.2%	19.8%[15.4 µM]	-1.0	5.4	nt
COC(=O)CSc1nnc(CNS(=O)(=O)c2ccc(Br)cc2)n1C	4.6%	6.1	5.5%	2.4%[15.4 µM]	5.1	-1.5	nt
Cc1ccc(S(=O)(=O)N2CCCCC2)cc1NC(=O)c1ccncc1	9.1%	-17.9	nt	?	nt	20.3	-1.4%
COc1ccc(CNC(=O)c2ccc(C(C)C)cc2)cc1	4.6%	-8.2	15.5%	12.1%[15.4 µM]	-0.2	-0.1	nt
CCOc1ccc(CC(=O)NCC(=O)NCc2cc(=O)n(C)c(=O)n2C)cc1	11.2%	-5.4	10.6%	-30.4%[inhibitor]	-1.3	-8.8	-0.4%
CCOc1cc(N2CCOCC2)c(OCC)cc1NC(=O)COC(=O)c1cc2ccccc2cc1O	-4.7%	?	-28.4%	-2.1%	8.3	2.7	1.5%
CC1Cc2ccccc2N1C(=O)COC(=O)c1cccc(Br)c1 (stereo not given)	-5.5%	-6.2	nt	21.9%	nt	18.6	2.5%
CSc1ccc(/C=C(\NC(=O)c2ccccc2)C(=O)NCCN2CCOCC2)cc1	-30.7%	5.0	18.1%	21.9%[15.4 µM]	1.3	38.4	-0.1%
COc1cc(C2=NOC(C(=O)NCc3ccccn3)C2)cc(OC)c1OC (stereo not given)	-1.5%	9.2	12.4%	-17.7%	4.2	12.6	-0.1%
COC(=O)c1ccc(C(NC(=O)OCc2ccccc2)/C(C)=C/[C@@H](C)C(=O)NCc2ccc(OC)c(OC)c2)cc1 (stereo not given in full)	-16.6%	-11.0	17.8%	?	0.1	45.0	-2.4%

4 compounds from above, sorted by molecular weight, high to low.
SMILES	gsp antagonist	TRPV1 PAM	Sfp PPTase inh	gsp ag	Menin-MLL FL inh	TRPML1 blocker	ClpP mod
CC(C)c1ccc(OCC(=O)N(Cc2ccco2)C2CCS(=O)(=O)C2)cc1 (stereo not given)	-1.3%	5.2	14.8%	9.0%	-0.1	1.9	0.6%
CCOc1ccc(CC(=O)NCC(=O)NCc2cc(=O)n(C)c(=O)n2C)cc1	11.2%	-5.4	10.6%	-30.4%[inhibitor]	-1.3	-8.8	-0.4%
COc1cc(C2=NOC(C(=O)NCc3ccccn3)C2)cc(OC)c1OC (stereo not given)	-1.5%	9.2	12.4%	-17.7%	4.2	12.6	-0.1%
Cc1ccc(S(=O)(=O)N2CCCCC2)cc1NC(=O)c1ccncc1	9.1%	-17.9	nt	?	nt	20.3	-1.4%
